# FGF22 binding – binders of human FGF22 protein, primary screen, FGF22 synaptogenesis inhibitor project, biophysical, thermal shift, single point; Fibroblast growth factor 22 (Homo sapiens), Q9HCT0; recombinant FGF22 thermal shift, SYPRO orange fluorescence; percent of sucrose octasulfate shift, DMSO zero; calls only at 9.99 µM; 340,000 tested, 1.5% active; AID 651658, 2012;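 active means melting point raised past a set limit in the mean and every replicate; inconclusive means no clear call; three in four hits are not shown here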
# Target sequence (Q9HCT0 whole entry, looked up): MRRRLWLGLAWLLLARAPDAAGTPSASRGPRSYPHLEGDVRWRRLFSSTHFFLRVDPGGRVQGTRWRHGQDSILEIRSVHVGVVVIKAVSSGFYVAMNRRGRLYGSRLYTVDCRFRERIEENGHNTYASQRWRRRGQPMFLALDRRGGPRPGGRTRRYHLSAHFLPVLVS
# AF4-AF9 inh – inhibitors of AF4 peptide binding to AF9, primary screen, biochemical, AlphaScreen, biotin-AF4 peptide, FLAG-AF9, single point. Protein AF-9 (Homo sapiens), P42568. 350,000 tested, 0.47% active. inhibition, % at 10 µM;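 active means every replicate reaching a set inhibition limit, whatever the replicate mean, cut at about 25% in these data; inconclusive means mean inhibition reaches that limit but some replicates miss it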;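 further: 0% = plate neutral control median and 100% = total signal loss; the record names both 10 and 1 µM as test concentration; the first replicate is given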
# Target sequence (P42568 whole entry, looked up): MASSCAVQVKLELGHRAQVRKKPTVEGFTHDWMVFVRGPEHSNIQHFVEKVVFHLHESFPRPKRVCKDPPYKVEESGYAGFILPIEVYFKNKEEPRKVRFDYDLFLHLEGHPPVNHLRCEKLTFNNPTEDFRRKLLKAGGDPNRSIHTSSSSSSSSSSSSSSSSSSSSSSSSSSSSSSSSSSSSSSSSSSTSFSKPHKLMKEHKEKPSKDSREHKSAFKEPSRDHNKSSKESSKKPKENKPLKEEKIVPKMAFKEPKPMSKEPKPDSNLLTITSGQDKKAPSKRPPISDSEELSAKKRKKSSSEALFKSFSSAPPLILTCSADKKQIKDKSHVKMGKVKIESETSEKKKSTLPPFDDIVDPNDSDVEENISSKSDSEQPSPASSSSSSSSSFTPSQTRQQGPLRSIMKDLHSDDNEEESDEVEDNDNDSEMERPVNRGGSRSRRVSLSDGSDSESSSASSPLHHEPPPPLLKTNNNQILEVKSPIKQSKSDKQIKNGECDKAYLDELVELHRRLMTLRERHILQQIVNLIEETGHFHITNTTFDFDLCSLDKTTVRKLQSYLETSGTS
# HNF4A DNA FP – change in binding of human HNF4A to DNA, primary screen, biochemical, fluorescence polarization, FITC-DNA | Hepatocyte nuclear factor 4-alpha (Homo sapiens), P41235 | 1 h | activity change, % at 10 µM | 360,000 tested, 0.3% active | AID 1224865, 2016; in the data active means activity change above about 30%, passing the limit was not always enough;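 further: controls were the assay level and a saturating level of protein; the project sought stronger binding though the title names inhibitors; some compounds called inactive have numbers as strong as hits; positive values seem to mean higher polarization but the record does not say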
# RanGTP-Impb inh – inhibitors of RanGTP-importin-beta interaction, primary screen, biochemical, FRET, CFP-Ran, YFP-importin-beta, homogeneous. AID 2216, 2009. inhibition, % (concentration not given with the values). 300,000 tested, 1.1% active. Ran GTPase (GTP-bound) - importin-beta complex. cell-free CFP-Ran/YFP-importin-beta FRET ratio;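 active means most replicates above 15%; inconclusive means exactly half above 15%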;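 further: 0% = DMSO wells and 100% = Ran loaded with GDP instead of GTP; wells of about 40 µL received 100 nL stock; the first replicate is given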
# Vif A3G – inhibitors of Vif binding to APOBEC3G peptide, primary screen, biochemical, TR-FRET, GST-Vif 1-94, biotin-A3G peptide, dose response retest (AID 1117319). Virion infectivity factor (Human immunodeficiency virus type 1 group M subtype B (isolate …. TR-FRET GST-Vif / biotin-A3G peptide binding; higher % means a stronger effect; test concentration not given here; strong numbers were not always called active. one-dose inhibition, %; IC50 in µM for titrated hits. 260,000 tested, 0.57% active;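 active means above the screen mean plus three standard deviations and confirmed in dose response; inconclusive means results disagree or hit not tested in dose response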;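 further: Vif residues 1-94 fused to GST binding biotinylated APOBEC3G peptide 110-148; 0% = full assay without inhibitor and 100% = GST in place of GST-Vif; retest series ran down from 100 µM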
# UCH37 DUB inh – inhibitors of human UCH37 deubiquitinase, primary screen, biochemical, Ub-AMC cleavage, fluorescence | purified proteasome/UCH37 | inhibition, % (test concentration not listed) | 330,000 tested, 0.33% active | Ubiquitin carboxyl-terminal hydrolase isozyme L5 (Homo sapiens), Q9Y5K5;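 active means mean of two replicates above 20%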;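 further: 0% = compound-free wells with enzyme and 100% = wells lacking proteasome; stock transfer was 100 nL into about 20 µL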
# Target sequence (Q9Y5K5 whole entry, looked up): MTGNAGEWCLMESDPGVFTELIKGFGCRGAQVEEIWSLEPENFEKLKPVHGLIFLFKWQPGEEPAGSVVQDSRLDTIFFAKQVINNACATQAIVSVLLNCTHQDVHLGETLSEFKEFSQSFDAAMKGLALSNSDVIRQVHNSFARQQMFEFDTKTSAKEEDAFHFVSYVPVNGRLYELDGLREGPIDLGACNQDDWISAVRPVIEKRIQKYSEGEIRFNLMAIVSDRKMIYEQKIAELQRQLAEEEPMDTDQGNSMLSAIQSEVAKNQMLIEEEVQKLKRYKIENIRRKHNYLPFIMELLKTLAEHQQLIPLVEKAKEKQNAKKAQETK
#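 Material: Human UCH37 enzyme supplied as purified proteasome complex | Schedule: 30 min compound-proteasome preincubation then 25 min substrate reaction, room temperature | Detection: AMC fluorescence from Ub-AMC cleavage, excitation 355 nm, emission 460 nm | Benchmarks: Wells without proteasome as full block, compound-free enzyme plus substrate as uninhibited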
# Ecoli growth – E. coli growth inhibition, primary screen, OD600; 330,000 tested, 0.21% active; AID 1053175, 2014; OD600 absorbance (test concentration not listed); Escherichia coli growth, 23 h; active compounds read low;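 active means OD600 absorbance below the run mean of sample wells minus 3.6 SD, in any replicate, cut at about 0.56 in these data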;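 further: stock transfer was 300 nL into about 60 µL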
# * hit, by the source's call; i = inactive; ? = inconclusive; . = no result given; + = active, no number; & = joins results of further samples. A portion of the library; rates above refer to the full screens.
SMILES,FGF22 binding,AF4-AF9 inh,HNF4A DNA FP,RanGTP-Impb inh,Vif A3G,UCH37 DUB inh,Ecoli growth
CCN1CCN(CCCNc2ncnc3nc[nH]c23)CC1,i,-0.9,4.3,-0.4,-1.8%,2.6,0.719
COc1ccc(NC(=S)Nc2cccc(C)n2)cc1,i,1.2,3.5,0.6,7.8%,4.9,0.683
COC(=O)c1nc2cc3c(cc2c(C)c1C(=O)OC)OCO3,.,.,-2.9,-1.2,1.1%,-154.1,0.708
CC(C)(C)C(=O)Nc1ccc(NC(=O)C(C)(C)C)cc1,i,-28.6,4.4,-0.1,.,1.8,0.674
CN(C)CCN(C(=O)/C=C/c1cccs1)c1nc2c(F)cc(F)cc2s1,.,.,2.7,2.0,0.3%,-24.1,0.681
O=C(NC1C2CC3CC(C2)CC1C3)C1CCCCC1 (stereo not drawn),i,-1.5,-0.6,5.7,3.8%,0.4,0.669
CCOc1ccccc1N1CCN(C(=O)c2c(CC)noc2C)CC1,i,?,-0.6,0.8,4.2%,-1.4,0.707
Cc1c(NC(=O)C(C)OC(=O)c2nc(Cl)ccc2Cl)c(=O)n(-c2ccccc2)n1C (stereo not drawn),i,2.2,-1.1,0.5,.,-0.1,0.719
COc1ccc(Nc2nc(-c3sc(C)nc3C)cs2)cc1,i,-5.0,-0.2,2.8,.,5.4,0.625
O=C(Nc1ccc(F)cc1)N(CCCN1CCOCC1)Cc1cc2cc3c(cc2[nH]c1=O)OCO3,.,.,-2.3,-0.1,18.4%,-10.3,0.763
NS(=O)(=O)c1ccc(NC(=S)Nc2nn(Cc3ccc(Cl)cc3Cl)cc2Cl)cc1,.,.,3.4,0.6,2.7%,1.5,0.68
CCC(C)NC(=O)c1cn(-c2cccc(OC)c2)c(=O)c2ccccc12 (stereo not drawn),i,-1.0,0.4,?,-0.1%,1.1,0.681
CCCc1nc2c(c(=O)c3ccccc3n2C)c(=O)n1C1CCCCCC1,i,-0.2,8.7,-1.4,.,4.9,0.691
COc1ccc(NC(=O)CC2C(=O)N(C)C(=S)N2Cc2cccs2)cc1 (stereo not drawn),i,-0.4,-1.3,-0.8,28.4%,1.0,0.67
CN(C)S(=O)(=O)c1cccc(NC(=O)COC(=O)COc2ccc(Br)cc2)c1,i,-6.4,-0.4,-0.3,3.0%,1.4,0.677
Cc1ccccc1N1CCN(CCN2C(=O)CC(=C3c4ccccc4-c4ccccc43)C2=O)CC1,.,.,-1.5,-0.4,-0.7%,9.8,0.71
COc1ccc(S(=O)(=O)Nc2ccc(F)cc2F)cc1C(=O)N1CCOCC1,i,0.8,-3.9,1.1,.,5.1,0.701
CSc1ccccc1NC(=O)CN(C)Cc1ccc(Br)cc1,.,.,1.0,3.8,-3.2%,1.3,0.682
CCSc1nnc(NC(=O)NC(C)(C(F)(F)F)C(F)(F)F)s1,.,.,-2.6,2.3,32.7%,-1.7,0.647
CCN(CCCNC(=O)C1CCN(S(=O)(=O)CC)CC1)c1ccccc1,i,-6.6,-1.9,-4.0,2.4%,2.5,0.72
CC(=O)N(C)C1(c2nnnn2CCOC(=O)Nc2ccc(Cl)cc2)CCCCC1,.,.,-1.4,1.6,2.5%,0.9,0.683
CC1CCCCN1C(=O)CN1CCC(c2nc3ccc(Cl)cc3[nH]2)CC1 (stereo not drawn),i,0.6,6.2,3.5,-2.8%,2.0,0.623
O=C(NCc1ccccc1)c1ccc(C(=O)NCc2ccccc2)cc1,i,-3.1,-3.4,.,-6.0%,.,.
CC1=CCC(C(C)(C)NC(=O)c2ccccc2)C/C1=N\O (stereo not drawn),.,.,-4.8,-3.7,-17.7%,.,.
Clc1ccc(C2=NNC(=NCc3ccccc3)SC2)cc1,i,2.2,0.9,-0.2,12.1%,2.5,0.626
O=C(Nc1ccccc1N1CCOCC1)c1csc2c1CCCC2,i,-12.3,1.0,0.9,0.5%,3.2,0.674
CC(=O)c1ccc(OC(=O)CCNC(=O)c2ccccc2)cc1,i,1.6,4.4,.,.,3.5,0.726
O=C(Nc1ccccc1F)C1(c2ccccc2)CC1(Cl)Cl (stereo not drawn),.,.,1.1,?,3.8%,-0.9,0.678
CCOC(=O)C1(C)CCN1C(=O)c1ccc(OC)c(OC)c1 (stereo not drawn),i,-2.0,-0.1,.,.,.,.
COc1ccc(S(=O)(=O)N2CCN(C(=O)c3ccccn3)CC2)cc1,i,-7.1,-3.4,.,4.1%,-0.8,0.669
c1ccc(CNc2c3ccccc3nc3ccccc23)cc1,i,2.6,-16.6,91.3*,.,-5.6,0.576
O=C(COc1ccc2c3c(c(=O)oc2c1)CCCC3)NCc1cccnc1,i,-9.8,5.8,-2.6,.,-6.8,0.68
COC(=O)c1ccc(CN2CCCC(CCC(=O)NCc3ccc(C)o3)C2)cc1 (stereo not drawn),i,-18.6,4.3,-3.4,0.0%,1.3,0.692
C=CCNc1ccc(C(=O)O)cc1,.,.,0.5,-4.9,.,-0.9,0.664
COc1ccccc1NS(=O)(=O)c1ccc(C(=O)NCCCN2CCCC2=O)cc1,i,-3.1,2.2,.,32.4%,4.3,0.717
Cc1ccc(S(=O)(=O)n2nc(C)cc2N)cc1,i,0.2,3.9,3.6,.,1.0,0.648
Cc1sc(NC(=O)CCC(=O)O)c(C(N)=O)c1-c1ccccc1,i,3.7,1.8,4.1,-3.6%,6.4,0.681
COC(=O)c1ccc(CSc2nc(C)nc3c2c(=O)n(C)c(=O)n3C)o1,i,-1.4,-2.5,6.9,?,0.9,0.802
CCOc1ccc(C(=O)COC(C)=O)cc1,.,.,0.0,3.7,2.7%,3.8,0.786
C=CCNC(=O)c1onc(CSc2nc3ccccc3[nH]2)c1C(=O)NCC=C,i,6.3,1.2,1.2,.,16.1,0.697

# Retrieved one by one from above:
SMILES,FGF22 binding,AF4-AF9 inh,HNF4A DNA FP,RanGTP-Impb inh,Vif A3G,UCH37 DUB inh,Ecoli growth
COc1ccccc1NS(=O)(=O)c1ccc(C(=O)NCCCN2CCCC2=O)cc1,i,-3.1,2.2,.,32.4%,4.3,0.717
C=CCNC(=O)c1onc(CSc2nc3ccccc3[nH]2)c1C(=O)NCC=C,i,6.3,1.2,1.2,.,16.1,0.697
c1ccc(CNc2c3ccccc3nc3ccccc23)cc1,i,2.6,-16.6,91.3*,.,-5.6,0.576
COC(=O)c1ccc(CN2CCCC(CCC(=O)NCc3ccc(C)o3)C2)cc1 (stereo not drawn),i,-18.6,4.3,-3.4,0.0%,1.3,0.692
Cc1sc(NC(=O)CCC(=O)O)c(C(N)=O)c1-c1ccccc1,i,3.7,1.8,4.1,-3.6%,6.4,0.681

# Further records:
SMILES,FGF22 binding,AF4-AF9 inh,HNF4A DNA FP,RanGTP-Impb inh,Vif A3G,UCH37 DUB inh,Ecoli growth
COc1cccc(C(=O)COc2cccc(NC(=O)c3ccco3)c2)c1,i,-0.5,-2.0,1.1,.,2.9,0.706
COc1ccc(N(C(=O)c2ccco2)S(=O)(=O)c2cccs2)cc1,.,.,0.3,5.2,5.1%,1.8,0.742
COC(=O)Cc1cc(=O)n2[nH]c(C)nc2n1,.,.,-0.3,17.6*,-7.1%,0.9,0.719
O=C(NCc1cccc(C(F)(F)F)c1)c1ccc2sc([C@H]3C[C@H](O)[C@@H](CO)O3)nc2c1,i,-0.2,0.0,.,.,.,.
CCOC(=O)C1CCN(S(=O)(=O)c2ccc3[nH]c4c(c3c2)CCCC4)CC1,i,4.1,1.2,6.1,.,-2.2,0.72
COc1ccc(C(=O)NCc2cc(C)nc3ccccc23)cc1OC,i,-0.9,1.4,-2.1,5.4%,2.3,0.707
CCc1ccc(C(O)c2ncc(-c3ccccc3C)[nH]2)cc1 (stereo not drawn),i,5.3,0.8,.,.,.,.
Cc1ccc(C(=O)C(C)OC(=O)Cn2cnc3c2c(=O)n(C)c(=O)n3C)cc1 (stereo not drawn),i,-39.0,-1.8,1.4,3.9%,3.3,0.699
CN1CCN(C(=O)c2ccc3c(c2)NC(=O)C(N2CCOCC2)S3)CC1 (stereo not drawn),.,.,1.0,-11.3,2.0%,0.4,0.662
Cc1c(CC(=O)NCCCCCC(=O)O)c(=O)oc2cc3c(cc12)CCC(C)(C)O3,i,3.2,1.2,0.2,4.8%,i,0.691
CC(NC(=O)c1ccccc1NS(C)(=O)=O)c1ccccc1 (stereo not drawn),.,.,1.3,-0.3,-3.9%,-50.8,0.774
CC(C)n1nc(C(=O)Nc2cccc(S(=O)(=O)N3CCOCC3)c2)c2ccccc2c1=O,i,-18.9,2.4,.,.,2.2,0.687
Cc1cc(C)c(C(=O)C2OC(=O)C(C)(C)C(=O)C2(C)C)c(C)c1 (stereo not drawn),.,.,1.9,5.2,4.3%,1.8,0.685
Cn1c(NNC(=O)c2c(F)cccc2F)cc(=O)n(C)c1=O,i,0.1,0.8,9.3,.,12.8,0.699
Cc1cc(Cl)ccc1OCC(=O)NCc1ccncc1,.,.,-0.3,-5.9,?,5.1,0.669
COc1ccc(CN2C(=S)NC(C)(C)CC2(C)O)cc1 (stereo not drawn),.,.,-7.1,2.0,-2.9%,1.1,0.669
COc1ccc(NS(=O)(=O)c2cccc(C(=O)NNC(=O)c3ccccc3O)c2)cc1,+,2.9,1.4,.,9.8%,0.2,0.603
COc1ccc2c(c1OC)C(=O)OC2Nc1nc(-c2ccccc2)cs1 (stereo not drawn),.,.,1.8,0.7,4.6%,2.5,0.69
CCOC(=O)C1=C(N)OC2=C(C(=O)CC(C)(C)C2)C1c1ccccc1OCC#N (stereo not drawn),.,.,-2.6,-1.7,-3.1%,-3.5,0.655
O=C1c2ccccc2C(Nc2ccc(S(=O)(=O)N3CCCCC3)cc2)N1c1ccccn1 (stereo not drawn),i,8.3,0.2,3.6,.,1.4,.
O=c1nc2scc(-c3ccccc3)n2c2ccccc12,.,.,0.2,2.0,-27.3%,-3.3,0.704
CN1C(=S)N(c2cccnc2)C(=O)/C1=C\c1ccc(N(C)C)cc1,i,-1.5,75.9*,-15.5,18.3%,12.0,0.697
c1ccc2[nH]c3cc4ncnc4cc3nc2c1,i,0.3,-103.0,-176.2,22.6%,10.7,0.661
NC(=O)C1=C[C@@H](c2ccc(Br)cc2)C[C@@H](OCCCCO)O1,i,.,1.4,8.6,.,.,.
CN1CCN(c2ccc([N+](=O)[O-])cc2NC(=O)c2cccs2)CC1,i,-0.1,-0.7,1.3,-5.5%,9.2,0.681
COc1ncnc2c1ncn2CCCNCc1ccc2c(c1)OCO2,i,1.0,1.9,.,2.5%,.,.
Nc1nc(-c2ccccc2)[nH]c(=O)c1N=O,i,3.2,-1.8,-0.8,.,12.7,0.625
Cc1ccc(-c2cc(Cc3ccc(F)cc3)c(=O)[nH]n2)cc1,i,-2.4,2.5,-6.2,-2.9%,1.0,0.657
Cc1ccc(Nc2ncnc(N)n2)cc1,i,0.4,0.5,6.3,4.3%,4.0,0.697
CCOC(=O)C1=CCN(S(=O)(=O)c2ccccc2C)C1c1ccc(C)cc1 (stereo not drawn),i,0.7,3.0,.,.,.,.
CCn1c(CSc2nc3ccccc3[nH]2)n[nH]c1=S,i,8.5,4.5,1.4,5.0%,0.0,0.65
COc1cc(CN2CCC(C(=O)N3CCN(c4ccccc4F)CC3)CC2)ccc1O,.,.,0.4,-3.5,-6.7%&-2.3%,2.2,0.65

# Source: PubChem BioAssay (several laboratories)
